Sa ugtP lethal: compounds lethal to S. aureus RN4220 ugtP deletion mutant; OD600 growth, 16 h; some inactives read as strong as hits; AID 1259309; growth inhibition, % (test concentration not listed); 330,000 compounds, 0.54% hits;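 active = z-score under -3 and OD600 up to 0.15 on both plates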;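 also: plate controls were untreated wells for no effect and antibiotic for full effect; wells of about 80 µL received 100 nL stock; the first replicate is given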
PrP UTR inh: inhibition of PrP 5' UTR reporter expression; cell-based PrP 5' UTR mRNA reporter, plate reader; inhibition, % (concentration not given with the values); 340,000 compounds, 0.35% hits; AID 488862;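 active = every replicate at 50% or more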;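 also: 0 = median of the neutral control wells; tested in H4 reporter cells; numbers are from one replicate; inactives centre near -14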
Autofluor counter: counter-screen for toxin protease inhibitors: compound fluorescence; compound autofluorescence counterscreen, microsphere flow cytometry; active compounds read high; fluorescence intensity (no concentration beside the values); 360,000 compounds, 3.1% hits; AID 624483;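 active = at least 3 SD above the mean of all compounds, about 16000 in these data; inconclusive = too few beads counted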;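 also: 100 nL of 1 mM stock went into each well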
BJeLR viability: BJeLR cell viability loss; BJeLR (HRASV12) viability, CellTiter-Glo ATP luminescence, 48 h; reference of the scale not given here; 300,000 compounds, 0.17% hits; inhibition, % (no concentration beside the values);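 active = replicate mean above 50%; inconclusive = above 50% but judged a plate artefact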;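 also: 50 nL library stock added to about 25 µL; numbers are from one replicate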
Mtb hypoxia rep: inhibitors of hypoxia-regulated fluorescent reporter in Mycobacterium tuberculosis | M. tuberculosis hypoxia-regulated fluorescent reporter, fluorescence | fluorescence inhibition, % (no concentration beside the values) | 300,000 compounds, 0.1% hits | AID 1159583;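 active = 35 to 45% if threefold the growth effect, above 45% if 1.5-fold the growth effect; inactive = the rest, general growth blockers included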;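 also: wells of about 50 µL received 100 nL stock; 0% = vehicle wells and 100% = reference inhibitor wells; whole bacteria with a GFP reporter of the hypoxia response; strong numbers were not always called active; many hits fall short of the cut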
RN4220 kill: kills Staphylococcus aureus RN4220. AID 1259311. inhibition, % (concentration not given with the values). 330,000 compounds, 0.33% hits. S. aureus RN4220 growth, OD600, 16 h;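 active = z-score of -3 or lower and OD600 up to 0.18 on both plates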;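 also: plate controls were untreated cells for no effect and reference antibiotic for full effect; stock transfer was 100 nL into about 80 µL; one replicate is shown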
Mtb hypoxia rep growth: further read-out of Mtb hypoxia rep, marked with its call; growth inhibition, %; measured here: M. tuberculosis growth (absorbance);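 0% = vehicle and 100% = reference antibiotic; read after six days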
The depositor's hits bear a star; ? = inconclusive; . = no result given. Not a hit list. Share with any hit: about 4%.

cpd	molecule	Sa ugtP lethal	PrP UTR inh	Autofluor counter	BJeLR viability	Mtb hypoxia rep	Mtb hypoxia rep growth	RN4220 kill
1	CC(C)(C)c1csc(NNC(=O)c2ccc(Cl)cc2)n1	-7	-13	5900	-6	7	7	38
2	CCOC(=O)c1c(NC(C)=O)sc2c(OC)c(Br)ccc12	-7	-1	9582	-15	-3	14	-1.8
3	CN(NC(=O)C(C)(C)C)c1nc(-c2ccccc2)nnc1C(F)(F)F	4	-34	4548	0	.	.	-0.3
4	CS(=O)(=O)N1N=C(c2ccccc2)CC1c1ccc2nccnc2c1 (centres undefined)	2	-8	10220	3	-1	1	0.8
5	O=S(=O)(c1ccc2ccccc2c1)N1CCCCC1	-1	-5	11268	-6	-6	-2	1.7
6	O=C(O)C1C2C=CC(C2)C1C(=O)NCCCc1ccccc1 (centres undefined)	-1	-3	2074	-6	17	5	9.1
7	Cc1ccc(NC(=S)NCC23C=CC(O2)C2C(=O)N(c4ccc(C)cc4)C(=O)C23)cc1 (centres undefined)	14	-16	8821	-2	1	-1	4.6
8	Cc1cc(C)cc(NC(=O)C(Nc2ccccc2)c2ccccc2)c1 (centres undefined)	23	-14	2619	7	-1	3	-4.4
9	CCOC(=O)c1c(NC(=O)C(C)Sc2c[nH]c3ccccc23)sc2c1CCC2 (centres undefined)	25	-21	4907	1	8	7	-24
10	CCC(c1nnnn1CCc1ccccc1)N(Cc1ccco1)Cc1cc2c(C)ccc(C)c2[nH]c1=O (centres undefined)	3	-18	3710	-9	8	0	9.9
11	Cc1cccc(NC(=O)C2CCN(S(=O)(=O)c3cccc4nonc34)CC2)c1	5	-19	2959	-9	6	11	4.6
12	CCC(CC)C(=O)N1CCN(c2cccc(C)c2C)CC1	4	-24	2199	-7	9	13	5.0
13	O=C(Nc1ccccc1Cl)c1cc[n+]([O-])cc1	-1	-22	5689	4	-5	4	1.1
14	COc1ccc(CN=C(Nc2ccccc2)SC2CC(=O)NC2=O)cc1 (centres undefined)	15	-40	3150	-8	6	5	5.8
15	CCOC(=O)c1csc(NC(=O)C2=COCCO2)n1	6	-49	5351	1	-5	-2	1.7
16	CCOc1cccc(CNC2CN3CCC2CC3)c1 (centres undefined)	16	-6	16409*	5	13	-3	5.7
17	CN1CCCN(S(=O)(=O)c2ccccc2)c2nc3ccccc3nc21	-8	-8	4232	.	-1	2	-4.0
18	COC1CCCCC1NCCc1ccccc1 (centres undefined)	10	-4	4055	3	2	8	4.2
19	COc1ccccc1NS(=O)(=O)c1cccc(C(=O)OCC(=O)Nc2cc(C)on2)c1	-5	-13	2675	3	17	6	-2.5
20	CC1CCN(CCOCCOc2ccc(Cl)cc2Br)CC1	11	-12	5960	-3	12	18	4.5
21	Cc1ccc(NC(=S)NC2CCCC2)cc1C	-5	-17	2613	0	9	-6	5.2
22	O=C(N/N=C/c1ccc2ncccc2c1)c1cc(-c2cccs2)nc2ccccc12	.	4	4641	-15	.	.	.
23	COc1ccc(CN(C)CC(=O)Nc2ccccc2C(=O)NC2CC2)cc1	1	-7	3998	.	-2	1	2.4
24	C=CCn1c(SCCN2C(=O)c3ccccc3C2=O)nc2scc(-c3ccccc3)c2c1=O	-7	-17	9041	-4	12	9	2.2
25	Cc1ccc(S(=O)(=O)N(C)C)cc1NC(=O)CCc1ccccc1	6	-11	5772	0	-7	-7	2.8
26	Cc1cccc(N2CCN(Cc3nc(-c4cccc(Oc5ccccc5)c4)oc3C)CC2)n1	37	-2	2082	12	19	7	-4.5
27	CC1(C)C=Cc2cc3ccc(=O)oc3cc2O1	8	-23	5457	-7	.	.	11
28	O=C(NNc1cc(Cl)cc(Cl)c1)C1CCC1	-1	-16	5803	-13	3	-8	-2.2
29	Cc1cc(OC(C)C(=O)NCC2CCC(C(=O)O)CC2)c2c3c(c(=O)oc2c1)CCC3 (centres undefined)	6	-16	5391	0	-3	1	3.8
30	CCN(Cc1cc2ccccc2[nH]c1=O)S(=O)(=O)c1ccccc1	-2	-11	4295	19	-17	-2	0.4
31	O=C(Cc1cccc(NC(=O)C2CCN(S(=O)(=O)c3cccc([N+](=O)[O-])c3)CC2)c1)Nc1cccc(C(=O)N2CCOCC2)c1	2	-23	3881	.	-4	8	4.2
32	O=C(Nc1ccccc1[N+](=O)[O-])C1=C(O)CCn2c1nc1ccccc12	5	-2	8697	2	11	-2	5.3
33	Cc1sc2nc(CSc3ccc([N+](=O)[O-])c(C(F)(F)F)c3)[nH]c(=O)c2c1C	-16	-6	2318	0	-2	9	8.9
34	COc1ccccc1-c1ccc2nnc(SC)n2n1	4	-13	5787	1	2	-1	3.8
35	O=C(Nc1ccc(S(=O)(=O)Nc2nccs2)cc1)c1cc(-c2ccccn2)nc2ccccc12	0	-25	2562	-3	.	.	-0.7
36	COc1ccc(C(=O)NCCC2=CCCCC2)cc1[N+](=O)[O-]	-2	-24	4109	4	10	2	-2.8
37	CC(=O)c1c(C)oc2ccc(NS(=O)(=O)c3ccc(C(=O)O)cc3)cc12	1	-26	5212	-10	6	-3	11
38	CCOc1ccc(NC(=O)CCNS(=O)(=O)c2cccc3nonc23)cc1	13	-19	3722	-11	-2	1	0.9
39	Cc1ccc(S(=O)(=O)NOCc2ccccc2)cc1	5	-13	3974	.	3	7	2.6
40	O=[N+]([O-])c1cc([N+](=O)[O-])c2oc(-c3ccccc3)c(Br)c2c1O	93*	-27	3813	15	5	8	92*
41	O=C(Nc1ccccc1)c1cccnc1N1CCOCC1	-3	-23	10023	-2	19	3	2.6
42	COc1cccc(/C=C/C(=O)Nc2ccc(N3CCOCC3)cc2)c1OC	-1	-12	4773	-2	9	4	2.0
43	CC(C)N(C(=O)c1sc2cc([N+](=O)[O-])ccc2c1Cl)C(C)C	-5	-14	9648	-9	-1	7	-0.7
44	CCS(=O)(=O)c1ccc(-c2csc(-c3ccc(Cl)cc3)n2)c(Cl)c1Cl	22	-5	2659	-11	.	.	0.7
45	Cn1c(SCC(=O)OC2CCCCC2)nnc1-c1ccc(S(=O)(=O)N2CCCC2)cc1	6	-23	6535	-6	15	6	2.8
46	Cc1cc(CNC(=O)Nc2ccc3c(c2)OCO3)nn1C	4	-16	?	.	-11	1	1.8
47	N#Cc1cccc2c1-c1ccccc1C2=NNC(N)=O	11	.	.	.	.	.	0.4
48	COc1cccc(NC(=O)CN2C(=O)NC(C)(c3ccc(C)cc3)C2=O)c1 (centres undefined)	-6	-15	3036	-1	13	-3	-1.5
49	COCCN1C(=O)N[C@@H](CCc2ccccc2)[C@H](C(C)=O)[C@H]1C	.	-13	3418	-5	.	.	.
50	CC1CCN(CCCNC(=O)CN2CCN(Cc3ccc(Cl)cc3)C2=O)CC1	11	-12	6475	3	11	9	2.3

The last 2 entries of the section above open the next one.
cpd	molecule	Sa ugtP lethal	PrP UTR inh	Autofluor counter	BJeLR viability	Mtb hypoxia rep	Mtb hypoxia rep growth	RN4220 kill
49	COCCN1C(=O)N[C@@H](CCc2ccccc2)[C@H](C(C)=O)[C@H]1C	.	-13	3418	-5	.	.	.
50	CC1CCN(CCCNC(=O)CN2CCN(Cc3ccc(Cl)cc3)C2=O)CC1	11	-12	6475	3	11	9	2.3
51	O/N=C\c1ccc(-c2ccccc2)o1	.	-45	2594	-6	.	.	.
52	CCCCNC(=O)C1(c2ccc(OC)cc2)CCOCC1	-6	-30	5992	-6	4	-2	2.6
53	CCCCN(CCCC)CCNC(=O)CN1C(=O)CSc2ccc(S(=O)(=O)N3CCOCC3)cc21	10	-6	5539	-6	1	7	1.3
54	Cc1ccc(C(=O)OC(C(=O)Nc2ccc(Cl)cc2C(F)(F)F)c2ccccc2)cc1 (centres undefined)	-1	-6	2417	-4	7	6	5.0
55	COc1ccccc1N1CCN(S(=O)(=O)c2ccc(-n3cnnn3)cc2)CC1	3	-10	5218	3	-9	-14	1.8
56	Clc1cccc(Cl)c1OCCOCCNCc1ccccc1	3	-5	3862	1	-2	-6	3.9
57	Cc1ccccc1-n1c(SCC(=O)NN=C/C=C/c2ccccc2[N+](=O)[O-])nc2ccccc2c1=O	-14	.	.	.	7	7	-0.6
58	O=C(C1=C[C@@H](c2ccccc2)C[C@@H](OCCCCO)O1)N1CCOCC1	.	-11	2946	9	.	.	.
59	CCN1CCN(C(=O)c2cc3cc(F)ccc3[nH]2)CC1	10	-17	3058	8	12	-4	3.3
60	Cc1ccc(C(=O)COC(=O)c2cc(C)no2)c(C)c1	5	-15	5663	.	13	1	4.2
61	OC(CNC1CCCCCC1)COc1cccc2ccccc12 (centres undefined)	-3	-20	3601	-12	3	17	-7.4
62	Cn1c(C(=O)O)c(CC(=O)N2CCC(Cc3ccccc3)CC2)c2ccccc21	5	-27	9020	3	12	3	13
63	COc1ccc(NC(=O)CCNC(=O)N2CC(=O)Nc3ccccc32)c(OC)c1	-1	2	6383	6	3	10	-0.6
64	CCCCn1c(N)c(N(CCOC)C(=O)CCN2C(=O)C3CC=CCC3C2=O)c(=O)[nH]c1=O (centres undefined)	0	-14	4016	.	3	2	4.3
65	CC(C)[C@H](NC(=O)c1ccccc1)C(=O)NC1=NCCS1	4	-33	3427	.	16	10	3.9
66	O=C(O)c1ccc2c(c1Sc1ccccc1)C(=O)c1ccccc1C2=O	3	.	.	6	10	4	9.2
67	COc1ccc(C(C)C)cc1S(=O)(=O)N1CC(C)OC(C)C1 (centres undefined)	5	-8	4471	3	13	7	6.4
68	COc1ccc(CC(=O)NCCc2cnc[nH]2)cc1	1	.	3830	-1	-4	-10	2.8
69	COc1ccc(C(=O)OCC(=O)Nc2ccc(F)c(F)c2)cc1OC	-4	-26	3348	6	3	6	6.0
70	Cc1ccc(C2=NOC(=O)/C2=C\C=C\c2ccccc2)cc1	49	-11	4248	16	0	12	42
71	CN(C(=O)COC(=O)c1ccc(S(=O)(=O)N2CCCC2)cc1)c1ccccc1	5	-18	3358	4	15	6	-1.4
72	CC(NC(N)=O)C(=O)NCC(=O)OCc1ccccc1 (centres undefined)	-4	-10	5803	-6	4	5	-2.8
73	COc1cc(/C=N/NC(=O)CN(Cc2ccccc2)S(=O)(=O)c2ccc3c(c2)OCCO3)ccc1O	.	-33	9787	13	.	.	.
74	O=C(NCc1ccco1)c1nn2cccnc2c1Cl	5	-7	.	5	2	-7	3.1
75	Cc1cc(C(=O)O)cc(S(=O)(=O)NNC(=O)c2cccs2)c1C	-11	11	3757	0	-9	4	-4.6
76	COc1ccccc1Nc1nc(N)nc(CN2CCOCC2)n1	8	-11	5347	-6	3	3	0.3
77	Cc1ccc(S(=O)(=O)N2CCOCC2)cc1NC(=O)CNCc1ccccn1	-5	-21	4091	19	7	-4	0.1
78	COc1ccc(CCNCC(=O)Nc2c(C)cc(C)cc2C)cc1OC	.	-21	3974	-6	.	.	.
79	CCC(c1nnnn1Cc1ccccc1)N1CCN(c2ccc(OC)cc2)CC1 (centres undefined)	1	-18	3988	-2	2	16	-0.9
80	CC(C)Nc1nc2cccnc2s1	6	-8	5773	-4	-2	-2	5.8
81	Nc1nonc1-n1nnc(C(=O)NN=Cc2cccc(F)c2)c1-c1ccccc1	5	.	.	.	0	9	2.3
82	COCCN(C(=O)COC(=O)C1=COCCO1)c1c(N)n(Cc2ccccc2)c(=O)[nH]c1=O	1	3	5941	4	3	-5	1.6
83	NC(=O)c1cccc(S(=O)(=O)N2CC(c3ccccc3)CC2=O)c1 (centres undefined)	4	-14	5314	-2	.	.	4.4
84	Cc1occc1C(=O)Nc1nn[nH]n1	0	-24	3629	0	12	-1	3.0
85	CCC(C)[C@H](NC(=O)N1CCn2c1nc1ccccc12)C(=O)NCC1CCCO1 (some centres undefined)	-3	-9	4110	4	2	26	-4.6
86	COc1nc(C#N)c(N2CCOCC2)o1	7	-16	23391*	-11	2	-2	5.2
87	CCCCn1nc(CC(=O)O)c2ccccc2c1=O	13	.	8174	1	12	6	5.8
88	Cc1ccc(OCCNC(=O)c2cc(C3CC3)nc3c2cnn3C(C)C)cc1	18	-19	4863	.	13	9	-1.0
89	COc1cc(SC)ccc1C(=O)OCc1nc2ccsc2c(=O)[nH]1	2	-14	5423	16	4	-1	2.5
90	CCCCCCOc1ccc(OCC(O)CN2C(=O)NC(C)(C)C2=O)cc1 (centres undefined)	-2	-54	8332	-18	5	5	6.6
